Screens from PubChem BioAssay.
D2 potentiator – positive allosteric modulators of human D2 dopamine receptor. P14416. DiscoveRx D2 beta-arrestin cells, luminescence, 90 min; 100% = 57 uM dopamine signal. potentiation, % (no concentration beside the values). hit rate 0.23% among 360,000. AID 624464; active = potentiation of 50% or more; inconclusive = 30% to 50%; inactive = 30% or less;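 note: compound concentration not given in the record; tested on top of an EC20 dose of dopamine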
Target sequence (P14416 whole entry, looked up): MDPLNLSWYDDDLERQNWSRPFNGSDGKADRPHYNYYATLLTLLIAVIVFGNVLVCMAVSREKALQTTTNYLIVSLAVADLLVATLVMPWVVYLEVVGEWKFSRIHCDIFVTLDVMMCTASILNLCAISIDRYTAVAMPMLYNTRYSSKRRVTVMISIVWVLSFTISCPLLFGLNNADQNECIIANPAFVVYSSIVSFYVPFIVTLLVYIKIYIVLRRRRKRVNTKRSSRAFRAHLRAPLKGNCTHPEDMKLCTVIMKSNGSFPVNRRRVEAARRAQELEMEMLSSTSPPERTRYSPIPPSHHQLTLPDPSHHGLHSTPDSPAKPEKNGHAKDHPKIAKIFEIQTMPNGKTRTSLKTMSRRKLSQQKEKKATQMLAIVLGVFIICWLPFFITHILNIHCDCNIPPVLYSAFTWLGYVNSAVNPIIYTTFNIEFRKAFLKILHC
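PathHunter D2 cells, attached overnight at 37 deg C, received compound in DMSO plus dopamine at EC20 (50 nM final) for 90 min at 37 deg C. Beta-arrestin recruitment was read as luminescence after 1 h with detection reagent at ambient temperature.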
CtBP-E1A inh – CtBP/E1A binding inhibition; hit rate 0.49% among 340,000; AlphaScreen GST-E1A/His-CtBP binding, 1536-well; hits give low values; control for the full effect not named in the record; AID 651724; activity change, % (test concentration not listed); in the data active means activity change below about -65%; inconclusive means about -30% to -65%; inactive means above about -30%; note: % is set by controls: 0 for no effect and ±100 for the full control effect; compound concentration not given in the record
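Homogeneous bead-based format: GST-tagged E1A captured on glutathione donor beads, His-tagged CtBP on nickel acceptor beads; compounds precede bead addition by 2 h at 37 °C.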
Six1-Eya2 blk – blocks human Six1 binding to Eya2. AlphaScreen GST-Six1/His-Eya2 binding, biochemical; hits give low values; control for the full effect not named in the record. activity change, % (no concentration beside the values). hit rate 0.56% among 360,000. AID 651725; in the data active = activity change below about -65%; inconclusive = about -30% to -65%; inactive = above about -30%; note: % is set by controls: 0 for no effect and ±100 for the full control effect; compound concentration not given in the record
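Six1/Eya2 binding was read as AlphaScreen signal after compounds were pinned into GST-Six1 plus His-tagged Eya2 (5X stock 250/500 nM) in pH 8.0 Tris/NaCl/TCEP buffer, beads added, then incubated 1 h, 37 C, dark.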
TRPML1 agonist – activates the human TRPML1 channel | Q9GZU1 | TRPML1-expressing cells, Ca2+ dye fluorescence, FDSS; host cell line not named in the record; reference of the full effect not given here | activation, % (test concentration not listed) | hit rate 0.12% among 410,000; in the data active = activation above about 50%; inconclusive = about 30% to 50%; inactive = below about 30%; note: 0% is about no effect; the text of the record puts the active cut at 80%
Target sequence (Q9GZU1 whole entry, looked up): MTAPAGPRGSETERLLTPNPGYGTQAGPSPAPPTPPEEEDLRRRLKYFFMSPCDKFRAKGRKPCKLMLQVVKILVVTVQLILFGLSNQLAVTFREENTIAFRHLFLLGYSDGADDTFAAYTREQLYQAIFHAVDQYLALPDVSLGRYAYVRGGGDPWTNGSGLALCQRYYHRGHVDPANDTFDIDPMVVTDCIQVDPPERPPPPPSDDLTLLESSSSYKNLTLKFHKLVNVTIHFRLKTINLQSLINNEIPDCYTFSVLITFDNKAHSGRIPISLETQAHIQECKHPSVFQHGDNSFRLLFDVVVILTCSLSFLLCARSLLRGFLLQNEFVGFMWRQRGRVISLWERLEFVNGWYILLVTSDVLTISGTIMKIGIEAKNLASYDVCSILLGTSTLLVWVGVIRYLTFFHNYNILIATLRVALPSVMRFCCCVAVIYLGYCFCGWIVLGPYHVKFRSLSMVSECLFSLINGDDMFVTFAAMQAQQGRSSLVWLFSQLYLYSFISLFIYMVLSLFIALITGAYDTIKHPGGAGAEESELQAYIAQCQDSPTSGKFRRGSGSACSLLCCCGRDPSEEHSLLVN
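In this qHTS format, compounds were pin-transferred onto Ca8-dye-loaded TRPML1-DL cells induced with Tet overnight, and intracellular Ca2+ fluorescence was recorded kinetically for 110 s after a 10 s baseline. A subsequent 4uM final 54-4 (EC80) addition followed by a second 110 s read served as the antagonist phase.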
TRPV1 potentiator – potentiators of human vanilloid receptor 1 (TRPV1) | hit rate 0.02% among 320,000 | AID 540277 | TRPV1-expressing cells, Fluo-8 calcium influx, capsaicin EC20 potentiation; host cell line not named in the record; control for the full effect not named in the record | potentiation, % at 8.33 µM | Q8NER1; active means potentiation above 80%; inconclusive means 30% to 80%; inactive means below 30%; note: 0% is about no effect
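Cells expressing TRPV1 were dye-loaded with Fluo-8 and read kinetically: 10 s baseline, 3 min after compound (agonist portion), then 2 min after EC20 capsaicin (allosteric enhancer portion). Calcium-bound dye fluorescence at 480/520 nm.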
TRPML1 blocker – human mucolipin-1 channel inhibition. TRPML1-inducible cells, Ca2+ dye fluorescence, FDSS; hits give low values; inhibition of EC80 agonist-evoked calcium signal. activity change, negative = inhibition, % (test concentration not listed). hit rate 0.02% among 390,000; in the data active means activity change below about -50%; inconclusive means about -30% to -50%; inactive means above about -30%;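 note: stimulus is agonist 54-4 at its EC80 concentration; % is set by controls: 0 for no effect and ±100 for the full control effect; compound concentration not given in the record; the text of the record puts the active cut at -80%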
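Calcium fluorescence in TRPML1-DL cells induced overnight with Tet: a 110 s read after compound pin addition, then a 110 s antagonist read after challenge with 54-4 at 4 uM final (EC80).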
Starred values were filed as active, the others as inactive; ? = inconclusive; . = not tested or not shown; & = joins results of further samples.

#	canonical_smiles	D2 potentiator	CtBP-E1A inh	Six1-Eya2 blk	TRPML1 agonist	TRPV1 potentiator	TRPML1 blocker
1	FC(F)(F)C1=Nc2cccc3cccc(c23)N1	?	-2	?	0.1	3	-12
2	Cc1ccc(-c2nn(-c3ccccc3)cc2CO)o1	2	-4	-5	4.5	8	-8
3	O=C(O)CNc1nc(-c2ccccc2)nc2ccccc12	-3	3	0	0.6	1	-3
4	Cc1cccc(C)c1OCCSc1nc2ccccc2n1CC(=O)O	-3	-2	4	0.1&-0.5	-2	17&-8
5	COc1ccc2c(CC(=O)OCC(=O)Nc3ccccc3[N+](=O)[O-])coc2c1	-4	.	-6	0.5	7	-5
6	COc1ccc(NC(=O)C2(N(CC(C)C)C(=O)Cn3nnnc3N)CCCCC2)cc1	6	7	-8	-0.7	7	13
7	Nc1nonc1-n1nnc(C(=O)N/N=C/c2cccs2)c1-c1ccc2c(c1)OCO2	10	23	-2	0.8	28	-10
8	N#CCCn1cc(C(=O)NCc2ccccc2)c(-c2cccs2)n1	1	6	3	-0.7	6	0
9	O=C(c1cc(Cl)ccc1Cl)N1CCc2ccccc21	1	11	15	1.1	14	8
10	CCN(CC(=O)Nc1ccc(NC(C)=O)cc1)C(=O)c1ccccc1SCc1c(C)noc1C	-10	4	-6	0.4	-18	20
11	Cc1c(Cl)cccc1NC(=O)CCN1C(=O)C2CC=CCC2C1=O (stereo not given)	-22	6	5	0.7	-22	13
12	O=C(Cn1ccn(-c2ccc(F)c(F)c2)c(=O)c1=O)NCCc1ccccc1	-41	-16	-3	0.0&0.0	3	5&-19
13	CC(C)NS(=O)(=O)c1ccc(OCC(=O)N2CCN(c3ccccc3)CC2)cc1	8	3	6	-0.2	4	3
14	O=C1c2ccccc2C(=O)C1c1ccc(Br)cc1	10	-21	-4	0.1	6	18
15	COCCN(C(=O)C(C)N1C(=O)c2ccccc2C1=O)c1c(N)n(CC(C)C)c(=O)[nH]c1=O (stereo not given)	-21	8	1	0.9	.	-10
16	CC(C)(C)CC(C)(C)N1CNC(=S)NC1	-16	.	-2	0.1	1	-5

Two entries drawn at random from the list so far, as already listed:
#	canonical_smiles	D2 potentiator	CtBP-E1A inh	Six1-Eya2 blk	TRPML1 agonist	TRPV1 potentiator	TRPML1 blocker
14	O=C1c2ccccc2C(=O)C1c1ccc(Br)cc1	10	-21	-4	0.1	6	18
10	CCN(CC(=O)Nc1ccc(NC(C)=O)cc1)C(=O)c1ccccc1SCc1c(C)noc1C	-10	4	-6	0.4	-18	20

The listing picks up, starting 3 compounds before the break.
#	canonical_smiles	D2 potentiator	CtBP-E1A inh	Six1-Eya2 blk	TRPML1 agonist	TRPV1 potentiator	TRPML1 blocker
14	O=C1c2ccccc2C(=O)C1c1ccc(Br)cc1	10	-21	-4	0.1	6	18
15	COCCN(C(=O)C(C)N1C(=O)c2ccccc2C1=O)c1c(N)n(CC(C)C)c(=O)[nH]c1=O (stereo not given)	-21	8	1	0.9	.	-10
16	CC(C)(C)CC(C)(C)N1CNC(=S)NC1	-16	.	-2	0.1	1	-5
17	Oc1c(Br)cc(Br)cc1C=Nc1cccnc1	-21	.	-1	0.4	26	8
18	CC1(C)OC(=O)C(=NNc2ccccc2[N+](=O)[O-])C(=O)O1	-9	0	27	-0.4	0	-9
19	CC(=O)Oc1ccc(C(=O)Nc2ccccc2C(=O)N2CCCCC2)cc1	-3	-2	6	0.8	3	18
20	OC1(c2cccc(F)c2)CCN(Cc2ccncc2)CC1	-41	8	3	-0.2	-5	0
21	COCCn1c(SCC(=O)Nc2ccccc2)nnc1-c1ccoc1C	-5	-4	4	-0.3	-25	15
22	CCOC(=O)CNS(=O)(=O)c1ccc(S(=O)(=O)NC2CC2)cc1	2	1	9	0.3	-2	-6
23	Cc1onc(-c2ccccc2Cl)c1C(=O)NCc1ccccn1	3	5	1	0.0	-4	-8
24	Cc1sc2nc(C3CC3)nc(N3CCN(S(=O)(=O)c4ccc(F)cc4)CC3)c2c1C	26	53	13	0.0	1	-2
25	COc1cc(OC)cc(C2=Cc3ccc(OC)cc3C(CC(C)=O)N2c2ccc(-c3cncnc3)cc2)c1 (stereo not given)	.	-8	9	0.4	.	.
26	CC(=O)c1cccc(NC(=O)c2cccc(NC(=O)c3ccco3)c2)c1	-3	0	-13	0.2	6	-16
27	O=C(COc1ccc(/C=N/NC(=O)c2ccccc2Br)cc1)Nc1ccccc1	-3	3	5	-0.4	19	-3
28	COc1cc(NC(=O)c2ccc(OC)c([N+](=O)[O-])c2)ccc1NC(=O)c1cccs1	-11	-5	1	-0.5	2	-22
29	O=C(COC(=O)c1ccc(NS(=O)(=O)c2cccs2)cc1O)Nc1nc2ccccc2s1	-16	.	3	0.1	11	9
30	CCn1nc(C)c(CN2CCCCC2C(=O)Nc2ccc(Oc3cccnc3)cc2)c1C (stereo not given)	-10	-4	8	0.2	-1	12
31	Cc1ccc2nc(-c3ccc(Cl)cc3)c(Cc3ccccn3)n2c1	.	-1	1	1.0	.	.
32	O=C(CN1C(=O)CCS(=O)(=O)c2ccccc21)NCc1ccc(F)cc1	-2	4	6	-0.1	13	56
33	Cc1ccc(S(=O)(=O)Nc2nc3ccc(S(C)(=O)=O)cc3s2)cc1	-17	7	4	0.5	4	1
34	Cc1ccc(C(=O)N=c2sccn2C)cc1S(=O)(=O)N1CCOCC1	21	?	?	-0.2	-18	-6
35	O=S1(=O)c2ccccc2OC(COCc2ccccc2)CN1C1CC1 (stereo not given)	-1	2	11	0.2	.	-2
36	O=C(Nc1ccccc1)N1CCc2c([nH]c3ccccc23)C1C(F)(F)F (stereo not given)	0	-1	-5	2.7	-7	15
37	COc1cc(CN2C[C@@H](CO)O[C@@H](n3cnc4c(Nc5ccccc5)ncnc43)C2)cc(OC)c1OC	10	2	-4	-0.5	.	.
38	COc1ccc(C(=O)Nc2ccnc(-c3cccnc3)n2)cc1	-6	-12	-1	1.6	-3	-19
39	O=C(Cn1cccn1)N1CCCC(N2CCN(Cc3ccc4c(c3)OCO4)CC2)C1 (stereo not given)	-40	1	2	0.3	-2	9
40	CCOC(=O)c1cccc(NC(=O)CCS(=O)(=O)c2cccs2)c1	-5	-7	1	-0.1	-24	30
41	CC(C)NC(=O)CN(c1cccc([N+](=O)[O-])c1)S(=O)(=O)c1ccccc1	-1	2	-3	-0.7	-31	2
42	COc1cccc(/C=C/C(=O)Nc2ccc3c(c2)OCCO3)c1OC	-32	3	-10	-1.3	5	4
43	CC(/C=N/NC(=O)CSc1ccccn1)=C\c1ccc(C(C)C)cc1	-9	-3	-7	0.5	-8	-11
44	CC(=O)c1ccc(NC(=S)N2CCN(c3cccc(Cl)c3)CC2)cc1	-10	1	-1	-0.4	2	-14
45	O=[N+]([O-])c1cc(Cl)cc(/C=N/NC(=S)Nc2ccc(S(=O)(=O)N3CCOCC3)cc2)c1O	-24	-98*	-91*	.	5	.
46	CCOC(=O)c1cnc2c(c(C3CC3)nn2C)c1N1CCOCC1	2	2	?	-0.7	-6	-18
47	COc1cc(NC(=O)CSc2ncnc3c2cnn3Cc2ccccc2)cc(OC)c1	5	-10	-11	-0.3	26	15
48	COc1ccc(C2=NN(C(=O)COc3ncnc4ccccc34)C(c3ccco3)C2)cc1 (stereo not given)	-3	-2	-5	0.8	-22	-3
49	Cc1ccc(-c2nc3c(C)cc(Br)cn3c2Cc2cccc(F)c2)cc1	.	1	1	-0.2	.	.
50	CCOC(=O)c1c(S(=O)(=O)Nc2ccccn2)c(C)n(C)c1C	1	4	9	-0.3	-8	10
51	C=CC1=C(C(=O)O)N2C(=O)[C@@H](NC(=O)/C(=N/OCC(=O)O)c3csc(N)n3)[C@H]2SC1	-5	-3	-9	-0.6	.	0
52	Cc1c(NC(=O)c2cccs2)cccc1[N+](=O)[O-]	-5	-1	3	-0.2	-9	10
53	O=C(O)CNC(=O)C(CS)Cc1ccccc1 (stereo not given)	-10	4	6	-0.1	-3	9
54	CCc1ccccc1NC(=O)CN(C)C(=O)Cn1cc(C(F)(F)F)cc(Cl)c1=O	-10	.	14	-0.2	3	-3
55	CCN(CC)CCNC(=O)c1ccc(NC(=O)c2ccc(S(=O)(=O)N3CCCC3)cc2)cc1	-1	1	6	2.1	.	0
56	O=C(CNC(c1ccccc1)c1ccccc1)Nc1ccc(F)cc1	-14	10	8	0.3	-1	-9
57	Cc1ccc(S(=O)(=O)N2CCC(C)CC2)cc1[N+](=O)[O-]	-6	-22	0	-0.1	-4	4
58	COC(=O)Cc1nc(NC(=O)c2cccs2)sc1C	-1	-1	1	-1.3	-15	17
59	C=CCn1c(O)c(C(CC)=NCCN2CCOCC2)c(=O)[nH]c1=O	-12	15	17	-0.5	-6	15
60	COC(=O)CC1(C(=O)OC)Oc2ccc(Br)cc2C(=O)N1c1ccc(Br)cc1Cl (stereo not given)	-4	8	-5	-0.1	-4	13
61	COc1cc2[nH]c3c(=O)n(CCN4CCOCC4)cnc3c2cc1OC	-2	-16	-22	1.1	9	-5
62	O=C(c1ccco1)N1CCCN(Cc2cn[nH]c2-c2ccc(-c3ccccc3)cc2)CC1	-31	-15	-2	1.3	6	16
63	Cc1ccccc1Nc1nc(N)nc(CSc2nnnn2-c2ccccc2)n1	0	-2	-4	1.1	-11	-8
64	COC(=O)CSc1nnc(CCc2nc3ccccc3[nH]2)n1C	-6	-24	0	0.0	-3	26
65	COc1ccc(NC(=O)CN(C)C(=O)CNC(=O)c2sc3ccccc3c2Cl)cc1	1	1	-6	4.1	-1	5
66	COCCNC(=O)C(c1ccc(Cl)cc1)N(C(=O)Cn1nnc2ccccc21)c1cccnc1 (stereo not given)	-4	-5	-7	-0.2	6	23
67	Cc1ccccc1CNC(=O)c1csc([C@H]2C[C@H](O)[C@@H](CO)O2)n1	-4	6	-2	-0.5	.	.
68	Cc1cc(C)cc(N(C(=O)c2ccc3c(c2)OCO3)C2C=CS(=O)(=O)C2)c1 (stereo not given)	-25	8	0	0.7	25	16
69	CCCCNC(=O)N1CCN(c2ncccn2)CC1	1	13	1	1.8	-2	-2
70	CCOc1ccc(C(=O)CCC(=O)Nc2cccc(S(=O)(=O)N3CCCCC3)c2)cc1	-7	-1	-4	2.5	16	13
71	CCNc1nc2nc3ccc(C)cn3c(=O)c2cc1C(=O)NCC1CCCO1 (stereo not given)	-9	-12	10	1.3	1	25
72	COCc1nnc(NC(=O)c2cc(OC)c(OC)cc2[N+](=O)[O-])s1	-8	5	9	0.3	0	21

The results go on:
#	canonical_smiles	D2 potentiator	CtBP-E1A inh	Six1-Eya2 blk	TRPML1 agonist	TRPV1 potentiator	TRPML1 blocker
73	CCCCCCC1CCC(C(=O)N2CCOCC2)CC1 (stereo not given)	-15	.	8	0.5	-17	-2
74	CCCCNC(=O)c1onc(CSc2ccc(C)c(C)c2)c1C(=O)O	-4	4	-2	-0.1	27	-17
75	CCOc1ccc(S(=O)(=O)N2CCN(CC(O)COc3cccc([N+](=O)[O-])c3)CC2)cc1 (stereo not given)	-3	3	-11	-1.0	-1	-15
76	COc1ccc(-c2coc3cc(OC)cc(OC)c3c2=O)cc1	-19	-30	?	.	-6	.
77	CCOC(=O)/C(=N\Nc1ccccc1)P(=O)(c1ccccc1)c1ccccc1	-8	-9	-7	1.0	-25	11
